D2 ag – Beta-Arrestin HTS for Positive Allosteric Modulators of the Human D2 Dopamine Receptor: Agonists; D(2) dopamine receptor (Homo sapiens), P14416; DiscoveRx PathHunter D2 beta-arrestin, luminescence, 90 min; 100% = 57 uM dopamine signal; activation, % (no concentration beside the values); 0.084% of 360,000 active; AID 624465, 2012; in the data active = activation above about 40%; inconclusive = about 15% to 40%; inactive = below about 15%; also: compound concentration not given in the record; the text of the record calls up to 30% inactive
Target sequence (P14416 whole entry, looked up): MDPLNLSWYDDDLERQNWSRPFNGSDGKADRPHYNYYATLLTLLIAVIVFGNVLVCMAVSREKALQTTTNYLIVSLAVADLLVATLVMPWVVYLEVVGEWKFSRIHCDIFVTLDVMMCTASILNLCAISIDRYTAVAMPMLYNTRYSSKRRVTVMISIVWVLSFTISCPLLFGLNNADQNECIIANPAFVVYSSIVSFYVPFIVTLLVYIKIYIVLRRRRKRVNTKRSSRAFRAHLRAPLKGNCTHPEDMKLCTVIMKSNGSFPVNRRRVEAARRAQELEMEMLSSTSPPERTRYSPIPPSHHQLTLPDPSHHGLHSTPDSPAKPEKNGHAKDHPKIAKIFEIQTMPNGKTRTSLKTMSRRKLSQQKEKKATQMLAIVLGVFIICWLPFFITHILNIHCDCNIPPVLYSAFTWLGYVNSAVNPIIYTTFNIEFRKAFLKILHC
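DiscoveRx PathHunter D2 beta-arrestin cells (2,100/well) attached overnight, then compound-stimulated 90 min at 37 C in HBSS/10 mM HEPES/0.1% Tween-20 buffer; beta-galactosidase complementation read by luminescence after 1 h at ambient temperature. Dopamine 57 uM final (EC100) as control.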
TRPV1 potentiator – HTS Assay for Compounds that Act as Potentiators of the Vanilloid Receptor 1; Transient receptor potential cation channel subfamily V member 1 (Homo sapiens), Q8NER1; TRPV1-expressing cells, Fluo-8 calcium influx, capsaicin EC20 potentiation; host cell line not named in the record; control for the full effect not named in the record; potentiation, % at 8.33 µM; 0.02% of 320,000 active; AID 540277, 2011; active means potentiation above 80%; inconclusive means 30% to 80%; inactive means below 30%; also: 0% is about no effect
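Fluo-8 calcium influx in TRPV1-expressing cells, kinetic read (ex 480/em 520 nm). Compound added and read 3 min for agonist activity, followed by capsaicin at EC20 final and 2 min further read for enhancement.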
Sfp inh – qHTS Assay for Inhibitors of Bacillus subtilis Sfp phosphopantetheinyl transferase (PPTase) | Biochemical Sfp PPTase activity, qHTS | 4'-phosphopantetheinyl transferase ffp (Bacillus subtilis), Q9F4F7 | 3.5% of 310,000 active | Potency, µM, inactives show max response, negative = inhibition, most hits filed as inhibitors | AID 1490, 2009; active = well fitted inhibition curve with a large enough effect; inconclusive = small, poorly fitted or top-dose-only effect, or another doubt; inactive = no such curve, though single readings can be large or run the other way;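 also: the enzyme is Sfp with the accession as filed and its product quenches rhodamine fluorescence; potency is read from the fitted curve at half-maximal effect; 0% = enzyme reaction without inhibitor and -100% = no enzyme wells; top concentration of the series not given in the record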
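Buffer: 50 mM Hepes-Na pH 7.6, 10 mM MgCl2, 0.01% Nonidet P-40, 0.01% BSA. Enzyme 15 nM, pre-exposed to compound 15 min; substrates then added and fluorescence change tracked over 30 min.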
D2 PAM – Beta-Arrestin HTS for Positive Allosteric Modulators of the Human D2 Dopamine Receptor: Potentiators; 0.23% of 360,000 active; DiscoveRx D2 beta-arrestin cells, luminescence, 90 min; 100% = 57 uM dopamine signal; AID 624464, 2012; potentiation, % (no concentration beside the values); D(2) dopamine receptor (Homo sapiens), P14416; active = potentiation of 50% or more; inconclusive = 30% to 50%; inactive = 30% or less;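 also: compound concentration not given in the record; tested on top of an EC20 dose of dopamine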
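PathHunter beta-arrestin assay in DiscoveRx D2 cells. Compounds were added with an EC20 of dopamine (50 nM final) for 90 min at 37 deg C. Luminescence was read 1 h after detection reagent, with 57 uM dopamine as the EC100 control.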
CtBP-E1A blk – qHTS Assay for Inhibitors of the CtBP/E1A Interaction; AlphaScreen GST-E1A/His-CtBP binding, 1536-well; active compounds read low; control for the full effect not named in the record; activity change, % (no concentration beside the values); AID 651724, 2012; 0.49% of 340,000 active; in the data active means activity change below about -65%; inconclusive means about -30% to -65%; inactive means above about -30%; also: % is scaled to controls: 0 for no effect and ±100 for the full control effect
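Steps: dispense buffer (Tris pH 8.0, NaCl 300 mM, TCEP 1 mM, BSA, Tween 20); add 5X protein mix (GST-E1A, His-CtBP, 125 nM each); pin 23 nL compound; 2 h at 37 °C, dark; add 5X beads (50 ug/mL); 1 h; read.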
PINK1 modulator – A Quantitative High throughput Screen to Identify Chemical Modulators of PINK1 Expression; PINK1 immunofluorescence, high-content cytometry, 24 h; Potency, µM (series often up to 76.6 µM), inactives show at the highest dose activation (PINK1 increase), actives largely listed as activators; 0.2% of 410,000 active; AID 624263, 2012; active = well fitted activation curve with a large enough effect; inconclusive = small, poorly fitted or top-dose-only effect; inactive = flat fitted curve, though single readings scatter; cell line not stated here;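 also: potency is read from the fitted curve at half-maximal effect; % of control where 0% means no effect; nearly all actives have a fitted effect of over 65% in size; a mitochondrial uncoupler was the plate control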
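Cells are seeded, rested 12 hours, then given compound at five concentrations or DMSO for 24 hours. After fixation, blocking and antibody staining, PINK1 amount and mitochondrial localization are scored; CCCP serves as control.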
Six1-Eya2 inh – qHTS Assay for Inhibitors of the Six1/Eya2 Interaction; Homeobox protein SIX1 (Homo sapiens) + Protein phosphatase EYA2 (Homo sapiens), …; AlphaScreen GST-Six1/His-Eya2 binding, biochemical; active compounds read low; control for the full effect not named in the record; activity change, % (concentration not given with the values); 0.56% of 360,000 active; AID 651725, 2012; in the data active = activity change below about -65%; inconclusive = about -30% to -65%; inactive = above about -30%; also: % is scaled to controls: 0 for no effect and ±100 for the full control effect
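AlphaScreen with GST-Six1 and His-Eya2 (5X mix: 250 nM and 500 nM), glutathione donor and nickel acceptor beads; buffer 50 mM Tris pH 8.0, 300 mM NaCl, 1 mM TCEP; 1 h at 37 C in the dark.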
Numbers without * were called inactive; ? = inconclusive; . = no result given; & = joins results of further samples; [ ] = dose if it differs, or a comment.

SMILES | D2 ag | TRPV1 potentiator | Sfp inh | D2 PAM | CtBP-E1A blk | PINK1 modulator | Six1-Eya2 inh
Oc1ccccc1C=NC1CCCCC1N=Cc1ccccc1O (stereo not drawn) | -4.8 | -11 | -2% | -4 | -14 | 0.9% | ?
O=C1NCCCC1C(=O)N/N=C/c1ccccc1[N+](=O)[O-] (stereo not drawn) | -3.5 | 21 | -9% | 2 | -1 | 1.3% | -5
COC(=O)c1cc(S(=O)(=O)NCC2CCN(CCc3cccs3)CC2)c[nH]1 | -1.9 | -3 | 14% | -30 | 2 | 0.0% | 0
O=C(COC(=O)CN1C(=O)c2ccccc2C1=O)Nc1ccccc1[N+](=O)[O-] | 0.8 | 20 | . | -6 | . | 4.0% | 14
Cc1ccccc1NC(=O)NCc1ccco1 | -3.2 | 4 | 2% | -23 | 5 | -0.3% | 2
O=C(CSc1nnc(SCc2ccccc2)s1)N/N=C/c1ccc(Cl)cc1Cl | -0.7 | -3 | 3% | -15 | 3 | 7.4% | -2
COCCNC(=O)c1oc2ccc3c(c2c1C)C(O)CC(C)(C)O3 (stereo not drawn) | -0.9 | -4 | 11% | -4 | 12 | -3.2% | 0
CNc1oc(-c2ccccc2Cl)nc1P(=O)(c1ccccc1)c1ccccc1 | -8.2 | -3 | ? | -5 | -7 | -2.2% | -5
CCN(CC)C(=O)CCc1nc2sc3c(c2c(=O)[nH]1)CCCC3 | 1.2 | -17 | 9% | -15 | 7 | ? | 0
Cc1ccc2ccc3ccc(C)nc3c2n1 | 1.3 | 1 | 2% | -7 | -3 | 29% | -3
O=C(Nc1cccc(Cl)c1)N1CCN(C/C=C/c2ccccc2)CC1 | 2.4 | -10 | -2% | -32 | -1 | . | -8
C=CCn1c(SCC(=O)Nc2ccc(C(=O)O)cc2)nnc1-c1cccnc1 | -1.6 | 0 | 24% | -6 | 5 | -1.0% | -2
CC(=O)N1CCc2c(sc(NC(=O)c3cccc(N4C(=O)CCC4=O)c3)c2C(N)=O)C1 | -2.3 | 5 | -17% | -18 | -9 | 0.0% | -7
CCCCCCCC1(C)NC(=O)N(CC(=O)Nc2cc(C)on2)C1=O (stereo not drawn) | 2.9 | -21 | 9% | -32 | 0 | -0.6% | 4
COc1ccc(-c2c(C(F)(F)F)nn(C)c2NC(=O)c2cccnc2)cc1 | 4.1 | 22 | 10% | -6 | 5 | 0.6% | 1
COc1ccc(C=C(c2ccc(OC)cc2)c2ccc(OC)cc2)cc1 | -1.0 | 4 | ? | -6 | 24 | 3.2% | 20
N/C(=N\C(=S)Nc1ccccc1)c1ccccc1 | -3.5 | -2 | 1% | 2 | 2 | 0.2% | -7
C#CC(CC)(CC)NC(=O)Nc1ccccc1C(=O)OC | -2.2 | -8 | -2% | 0 | . | -1.5% | 4
CCOC(=O)c1sc(/N=C/Nc2nc(C)c(C(=O)OCC)s2)nc1C | 0.4 | -1 | 9% | -8 | -9 | 0.5% | 2
Cc1ccc(-n2c(C)nnc2SCC(=O)N(C)c2c(N)n(Cc3ccccc3)c(=O)[nH]c2=O)cc1 | -3.3 | 1 | . | -2 | 0 | -1.8% | 2
O=C(Nc1ccc2c(c1)C(=O)NC2=O)c1ccccc1Cl | -5.3 | -15 | 3% | -6 | -1 | 0.4% | -9
CC(=O)NC(Cc1ccc(O)cc1)C(=O)NN (stereo not drawn) | 0.7 | 2 | 20% | 10 | . | 2.7% | -1
C#CCOCCOCCOCCNc1nc(N2CCN(C(=O)[C@H]([C@@H](C)CC)n3cc([C@@H](N)CO)nn3)CC2)nc(N2CCN(C(=O)[C@H]([C@@H](C)CC)n3cc([C@@H](N)Cc4ccc(O)cc4)nn3)CC2)n1 | -1.4 | 0 | 10% | -13 | -11 | 0.1% | -14
O=C1Nc2ccccc2OCc2c1cccc2[N+](=O)[O-] | 7.8 | 5 | 17% | 16 | 17 | 3.9% | 11
CC1CN(C(=O)c2ccc(-c3ccccc3Cl)o2)CC(C)O1 (stereo not drawn) | -6.0 | -25 | . | -31 | ? | 1.4% | 8

(further entries)
SMILES | D2 ag | TRPV1 potentiator | Sfp inh | D2 PAM | CtBP-E1A blk | PINK1 modulator | Six1-Eya2 inh
CC1=C(C(=O)N2CCOCC2)C(c2ccc(Br)cc2)NC(=S)N1c1ccccc1 (stereo not drawn) | -4.1 | -2 | 1% | -6 | -1 | -2.0% | 2
CCOc1ccc(C(=O)N2CCN(c3ccccn3)CC2)cc1OCC | -1.8 | 7 | 19% | -2 | 4 | 3.1% | -5
CCOC(=O)C1CCCN(C(=O)CCc2nc3sc4c(c3c(=O)[nH]2)CCCC4)C1 (stereo not drawn) | -1.1 | -3 | . | -1 | 2 | 8.0% | 1
COc1ccc(CCN2CC(C(=O)OCC(=O)N(C)Cc3ccccc3)CC2=O)cc1OC (stereo not drawn) | 5.3 | -13 | . | -4 | -2 | -0.3% | 4
COc1ccc(C2C=C(C)Nc3ncnn32)cc1 (stereo not drawn) | -2.4 | . | . | -8 | 6 | 0.4% | 0
CCCCN(CC)CCNC(=O)C1CCN(S(=O)(=O)c2cccc3nsnc23)CC1 | -2.4 | -8 | 18% | -17 | 6 | 0.5%&-0.3% | -1
COc1ccc2nc(COC(=O)c3ccco3)c(C(C)=O)[n+]([O-])c2c1 | 0.4 | -6 | 11% | -11 | -2 | 1.1% | -1
Nc1nc(CN2CCc3ccccc3C2)nc(Nc2ccccc2)n1 | -4.5 | 24 | -1% | -23 | -16 | 0.8% | -11
CC(C)(C)NC(=O)NC(=O)CN1CCN(c2ccccc2O)CC1 | -0.8 | 4 | 18% | -8 | -6 | 2.1% | 1
CC(C)c1ccc(NC(=O)CN2CCN(C(=O)C3CCCO3)CC2)cc1 (stereo not drawn) | 1.2 | 0 | 20% | -11 | -4 | 3.2% | 12
Nn1c(SCC(=O)Nc2c(Cl)cccc2Cl)nncc1=O | -4.8 | -17 | . | -1 | -1 | -1.3% | 1
Nc1cccc(Oc2cnccn2)c1 | -6.2 | -30 | 13% | -2 | . | 1.9% | 10
COc1ccccc1CNC(=O)COC(=O)CSc1ccc(C)c(C)c1 | -3.3 | -9 | . | -12 | 7 | -2.0% | 1
O=C(CSc1nc2ccccc2c(=O)n1C1CC1)NCc1ccccc1 | -1.2 | -15 | 13% | 1 | 8 | -2.2% | 4
CCCCN(C)C(=O)c1cc2c(s1)-c1ccccc1S(=O)(=O)C2 | -0.3 | 8 | 6% | -2 | 1 | 0.0% | -4
O=C(CN1CCN(Cc2ccccc2F)C1=O)NCc1cccnc1 | -5.5 | -5 | 13% | -3 | 5 | -1.3% | 7
CCOC(=O)N1CCc2c(sc3c2c(=O)n(Cc2ccccc2)c(=O)n3Cc2ccc(C)cc2)C1 | -5.4 | 9 | -8% | -6 | 3 | 2.6%&1.6% | 3
O=C1CCCN1CCCNc1ncnc2c1[nH]c1ccc(Cl)cc12 | -2.3 | 1 | 3% | -15 | -17 | 1.0% | -20
CCOC(=O)CCc1c(C)nc2cc(-c3ccc(F)cc3)[nH]n2c1=O | -3.2 | 24 | 16% | -32 | -15 | 11% | -27
COc1ccccc1CNC(=O)Cc1ccc(Br)cc1 | 0.6 | -13 | 3% | -4 | -6 | 2.6% | 5
CC(=O)n1c(Cl)c(NC(=O)CCl)c2ccccc21 | -2.6 | 5 | 12% | -8 | -2 | 0.6%[38.3 µM] | -21
CC1CCCN(CC(O)COCc2ccc3c(c2)OCO3)C1 (stereo not drawn) | -3.2 | -10 | 11% | -36 | -7 | 0.7% | -11
COc1cccc(C(C(=O)NC(C)(C)C)N(C(=O)CCC(=O)Nc2cc(C)on2)c2ccc3c(c2)OCCO3)c1OC (stereo not drawn) | -6.0 | -4 | 22% | -6 | -8 | 1.2% | 2
O=C(O)c1[nH]c2ccccc2c1-c1ccccc1 | -3.1 | -2 | 1% | 2 | ? | -0.9% | -1
COc1ccccc1NS(=O)(=O)c1ccc(N2CCOCC2)c(N)c1 | -7.1 | . | . | -8 | 8 | -1.2% | 0

3 entries from above, with two lines to a compound.
Values in the order – D2 ag | TRPV1 potentiator | Sfp inh | D2 PAM | CtBP-E1A blk | PINK1 modulator | Six1-Eya2 inh
> COc1ccc2nc(COC(=O)c3ccco3)c(C(C)=O)[n+]([O-])c2c1
  0.4 | -6 | 11% | -11 | -2 | 1.1% | -1
> COc1ccccc1CNC(=O)Cc1ccc(Br)cc1
  0.6 | -13 | 3% | -4 | -6 | 2.6% | 5
> O=C1CCCN1CCCNc1ncnc2c1[nH]c1ccc(Cl)cc12
  -2.3 | 1 | 3% | -15 | -17 | 1.0% | -20

Carrying on.
SMILES | D2 ag | TRPV1 potentiator | Sfp inh | D2 PAM | CtBP-E1A blk | PINK1 modulator | Six1-Eya2 inh
Cc1cc(S(=O)(=O)/N=C(\N)c2ccc(C(N)=O)cc2)cc(C)c1F | -5.4 | ? | 3% | -7 | -7 | 1.1% | -2
COc1ccc(C2C(C(=O)NCc3ccccn3)CCC(=O)N2c2cc(OC)c(OC)c(OC)c2)cc1 (stereo not drawn) | -2.8 | -1 | 11% | -1 | 5 | 2.1% | -4
c1ccc(CCNCC2COc3ccccc3O2)cc1 (stereo not drawn) | 4.0 | -11 | 11% | -13 | 7 | -2.5% | -3
CCC(Cc1ccccc1)NC(=O)CCn1cccc1 (stereo not drawn) | -2.5 | 1 | -1% | -8 | -4 | -3.0% | -3
CCCS(=O)(=O)NC(=O)C1(C)CCCN(C(=O)c2ccccc2C(F)(F)F)C1 (stereo not drawn) | -2.0 | . | . | 3 | 2 | -0.4% | -1
O=C(Oc1ccc2c(c1)OCO2)c1cccs1 | -3.5 | -3 | 9% | -8 | 8 | -2.1% | 3
Cc1ccc(OCC(=O)NC2CCS(=O)(=O)C2)cc1 (stereo not drawn) | 0.3 | -8 | 14% | -5 | 1 | -1.5%[38.3 µM] | 5

Screening results from PubChem BioAssay.
